# HNF4A DNA FP: change in binding of human HNF4 alpha to DNA. HNF4a-FITC DNA binding, fluorescence polarization, 1 h. activity change, % at 10 µM. hit rate 0.3% among 360,000; in the data active means activity change above about 30%, passing the limit was not always enough;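 further: controls were the assay level and a saturating level of protein; the project sought stronger binding though the title names inhibitors; some compounds called inactive have numbers as strong as hits; positive values seem to mean higher polarization but the record does not say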
# Target sequence (P41235 whole entry, looked up): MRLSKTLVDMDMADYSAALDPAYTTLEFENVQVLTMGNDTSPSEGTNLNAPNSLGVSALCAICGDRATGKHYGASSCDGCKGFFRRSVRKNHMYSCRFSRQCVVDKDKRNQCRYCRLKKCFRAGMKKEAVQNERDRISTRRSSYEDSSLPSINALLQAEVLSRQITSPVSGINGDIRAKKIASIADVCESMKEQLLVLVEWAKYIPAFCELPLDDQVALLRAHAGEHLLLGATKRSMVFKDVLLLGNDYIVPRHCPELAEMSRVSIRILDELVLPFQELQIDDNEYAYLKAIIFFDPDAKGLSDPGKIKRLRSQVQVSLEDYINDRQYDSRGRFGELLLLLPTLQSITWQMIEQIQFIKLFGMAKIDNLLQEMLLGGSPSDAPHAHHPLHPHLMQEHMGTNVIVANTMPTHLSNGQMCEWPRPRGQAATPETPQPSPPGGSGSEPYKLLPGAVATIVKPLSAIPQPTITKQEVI
# FGF22 binding: FGF22 (human) thermal shift binding; Q9HCT0; recombinant FGF22 thermal shift, SYPRO orange fluorescence; percent of sucrose octasulfate shift, DMSO zero; calls only at 9.99 µM; hit rate 1.5% among 340,000;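 active means melting point raised past a set limit in the mean and every replicate; three in four hits are not shown here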
# Target sequence (Q9HCT0 whole entry, looked up): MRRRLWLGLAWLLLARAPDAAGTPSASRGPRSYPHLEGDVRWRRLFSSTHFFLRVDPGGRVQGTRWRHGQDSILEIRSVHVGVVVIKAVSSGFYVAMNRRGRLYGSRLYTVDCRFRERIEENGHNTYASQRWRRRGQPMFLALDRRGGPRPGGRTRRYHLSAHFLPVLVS
# * marks the source's active call; other numbers are inactive results; i = inactive; · = not tested or not shown. These rows are one share of the data (hit frequency here may not be typical).
SMILES,HNF4A DNA FP,FGF22 binding
C[C@@H]1CN([C@H](C)CO)C(=O)CCCn2nncc2CO[C@H]1CN(C)Cc1ccncc1,-4.5,i
CN(CCc1ccccc1)C(c1ccnc2ccccc12)c1nnnn1-c1ccc2c(c1)OCCO2 (stereo unspecified),-3.8,i
Cn1cc(Cc2ccc(C(=O)NCc3ccccc3)cn2)c2ccccc21,0.6,i
O=C(NCc1ccc(F)cc1)Nc1nnc([C@H]2C[C@H](O)[C@@H](CO)O2)s1,0.0,i
CCCc1c(C(=O)N/N=C(\C)c2ccc3c(c2)OCO3)nnn1-c1nonc1N,-5.4,i
CCCS(=O)(=O)NC(=O)C1(C)CCCN(C(=O)c2ccccc2F)C1 (stereo unspecified),1.6,i
Cn1c(NCCc2ccncc2)nc2cc(-c3ccsc3)sc2c1=O,0.5,i
O=C(Nc1ccc(F)cc1)N[C@H]1CC[C@H](CCNS(=O)(=O)c2cccc(Cl)c2)O[C@@H]1CO,0.3,i
CC1(c2nc3ccccc3[nH]2)CCC(=O)N1Cc1cccs1 (stereo unspecified),-0.3,i
CN(C)C(=O)c1cccc(-c2cnc3c(NC=O)cc(-c4ccc(N(C)C)cc4)cn23)c1,4.7,i

# A second format for some results above:
canonical_smiles	HNF4A DNA FP	FGF22 binding
Cn1cc(Cc2ccc(C(=O)NCc3ccccc3)cn2)c2ccccc21	0.6	i
O=C(NCc1ccc(F)cc1)Nc1nnc([C@H]2C[C@H](O)[C@@H](CO)O2)s1	0.0	i

# The listing continues.
SMILES,HNF4A DNA FP,FGF22 binding
COc1ccc(NC(=O)C2C(c3ccc4c(c3)OCO4)=Nc3ccccc3N2C(=O)c2cccc(C(F)(F)F)c2)cc1 (stereo unspecified),7.2,i
COC(=O)C[C@H]1C=C[C@H](NC(=O)c2cccc(F)c2)[C@@H](CO)O1,-0.8,·
COc1ccc(S(=O)(=O)N(C)C[C@H]2Oc3ncc(-c4ccncc4)cc3C(=O)N([C@@H](C)CO)C[C@@H]2C)cc1,3.4,i
CCOCCC(=O)Nc1ccc2c(c1)c(=O)n(C)n2CC=C(C)C,-1.4,i
CCc1c(C2CC2)ncn1Cc1cccc(-c2ccccc2)c1,0.7,i
C#CCN(C[C@@H]1[C@@H](OC(=O)NCc2ccccc2F)[C@@H](OC(=O)NCc2ccccc2F)Cn2c(=O)n(CCCCCC)c(=O)n21)S(=O)(=O)c1ccc(C)cc1,-4.9,i
CSCCC(C(=O)Nc1c(C)cccc1C)N1CCN(c2ccc(C(F)(F)F)cn2)CC1 (stereo unspecified),1.6,i
COc1ccc(OC)c(NC(=O)Nc2nc(C(N)C(C)C)cs2)c1 (stereo unspecified),4.1,i
OC[C@@H]1CN(C2CCCC2)C[C@H](n2cnc3c(NC4CC4)ncnc32)O1,2.6,i
COc1cc(NC(=O)Nc2cccn3nc(COCCO)nc23)cc(OC)c1OC,1.4,i

# Profiles, quoted from the list:
# Listed for COc1ccc(OC)c(NC(=O)Nc2nc(C(N)C(C)C)cs2)c1 (stereo unspecified) = HNF4A DNA FP: 4.1; FGF22 binding: i
# Listed for COC(=O)C[C@H]1C=C[C@H](NC(=O)c2cccc(F)c2)[C@@H](CO)O1 = HNF4A DNA FP: -0.8; FGF22 binding: ·
# Listed for CCOCCC(=O)Nc1ccc2c(c1)c(=O)n(C)n2CC=C(C)C = HNF4A DNA FP: -1.4; FGF22 binding: i

# (next part)
SMILES,HNF4A DNA FP,FGF22 binding
COc1ccc(-c2cc(C(=O)N(C)CC(=O)Nc3cccc(F)c3)c3ccccc3n2)cc1OC,1.4,i
CC(C)(C)OC(=O)Nc1ccccc1-n1nnnc1C(C(=O)c1ccc(F)cc1)N1CCOCC1 (stereo unspecified),1.9,i
CC(=O)Nc1ccc(-c2ccnc3c2CC(C)(C(=O)Nc2cccc(OC(F)(F)F)c2)O3)cc1 (stereo unspecified),2.7,i
Cc1cc(C)n2c(Nc3ccc4c(c3)OCCO4)c(-c3ccccn3)nc2n1,-0.8,i
COC(=O)Cc1ccccc1NS(=O)(=O)c1ccc(C)cc1,-1.9,i
O=C1NC[C@H](CCCCN2C[C@H](Cc3ccccc3)N(CCc3ccc(O)cc3)C(=O)C2=O)N(CCC2CCCCC2)C1=O,4.6,i
Cc1cccc(CN2CCN(C3CN(Cc4ccccc4)S(=O)(=O)C3)CC2)c1 (stereo unspecified),-0.8,i
O=C(NCCC(F)(F)F)C1Cc2c(-c3ccccc3Oc3ccccc3)ccnc2O1 (stereo unspecified),-3.8,i
COCC1OC(OC(C)C(O)c2cnc3nc(N)[nH]c(=O)c3n2)C(O)C(OC)C1O (stereo unspecified),7.0,i
CC1(C(=O)NCCC(F)(F)F)Cc2c(-c3cccc(C(F)(F)F)c3)ccnc2O1 (stereo unspecified),0.2,i
CCOC(=O)c1ccc(-n2cnc(-c3ccc([N+](=O)[O-])cc3)c2)cc1,17,i
COc1ccc(S(=O)(=O)Nc2ccc3c(c2)C(=O)N([C@H](C)CO)C[C@H](C)[C@@H](CN(C)S(=O)(=O)c2cn(C)cn2)OCCCC[C@H](C)O3)cc1,-2.8,i
OC[C@@H]1CN(Cc2ccco2)C[C@H](n2cnc3c(NCc4ccncc4)ncnc32)O1,1.7,i
CC1=C(C(=O)N(C(C)C)C(C)C)CC(CC(=O)NCCCCc2ccccc2)C(=O)N1Cc1ccc(C(C)(C)C)cc1 (stereo unspecified),1.6,i
COc1ccccc1NC(=O)N(C)C[C@H]1OCc2cn(nn2)CCCC(=O)N([C@@H](C)CO)C[C@@H]1C,-7.8,i
CSc1ncnc2c1ncn2CCCN[C@H](C)c1cccc2ccccc12,1.4,i
COc1ccc(S(=O)(=O)N(C)C[C@H]2Oc3cc(Br)ccc3S(=O)(=O)N([C@H](C)CO)C[C@H]2C)cc1,2.0,i
Cc1ccccc1Nc1nn2c(=O)c3ccc(C(=O)N4CCCC(C)C4)cc3nc2s1 (stereo unspecified),1.8,i
Cc1cccc(C)c1NC(=O)C(c1ccc(-c2ccccc2)cc1)n1c(=O)c(-c2cc3ccccc3[nH]2)nc2ccccc21 (stereo unspecified),2.6,i
CCN(CC(=O)Nc1c(F)cccc1F)C(=O)c1c(-c2ccccc2Cl)noc1C,-0.7,i

# Given as labelled records: entries from further up.
> Cc1ccccc1Nc1nn2c(=O)c3ccc(C(=O)N4CCCC(C)C4)cc3nc2s1 (stereo unspecified)
- HNF4A DNA FP: 1.8
- FGF22 binding: i
> Cc1cccc(C)c1NC(=O)C(c1ccc(-c2ccccc2)cc1)n1c(=O)c(-c2cc3ccccc3[nH]2)nc2ccccc21 (stereo unspecified)
- HNF4A DNA FP: 2.6
- FGF22 binding: i

# New compounds follow
SMILES,HNF4A DNA FP,FGF22 binding
CCCCN1C(=O)C(CC(=O)NCC2CCCCC2)CC(C(=O)N2CCCCCC2)=C1C (stereo unspecified),-2.6,i
C[C@H]1CN([C@@H](C)CO)C(=O)CCCn2nncc2CO[C@H]1CN(C)S(=O)(=O)c1cccc(C#N)c1,-0.6,i
OC(c1ccc(F)c(F)c1)c1nc(-c2csc3ccccc23)cs1 (stereo unspecified),2.3,i
COc1ccc(-c2csc(C(C)(NC(C)=O)c3ccccc3)n2)cn1 (stereo unspecified),-4.1,i
O=[N+]([O-])c1ccc(NN=C(Oc2ccccc2)c2ccc([N+](=O)[O-])cc2)cc1,23,i
COc1ccc(-c2ccc(C(=O)Nc3cccc(F)c3)c3occc23)c(C)c1,-2.6,i
C[C@H](O)[C@@H]1CN2CCc3c([nH]c4ccccc34)[C@@H]2C[C@@H]1N(C)C(=O)c1ccco1,-9.5,i
CC(=O)Nc1cc(-c2ccc(N3CCN(C)CC3)cc2)cn2c(-c3ccccc3)cnc12,12,i
Cc1ccc(S(=O)(=O)N(C)C[C@H]2Oc3cc(C#Cc4ccccc4)ccc3S(=O)(=O)N([C@H](C)CO)C[C@@H]2C)cc1,3.7,i
O=C(Nc1ccccc1)c1cc(C2COCCN2C(=O)c2cccs2)on1 (stereo unspecified),-2.0,i
COc1ccc([C@H]2C[C@@H](n3cc(COC(=O)c4ccccc4)nn3)[C@H](O)CN2C(=O)C2CCCCC2)cc1,-3.4,i
CC(C)(C)Cc1c(-c2cccc(Br)c2)nc2ccc(Br)cn12,12,i
O=C(CSc1nnc(CNC(=O)c2c(F)cccc2F)o1)c1ccc(Cl)cc1,-9.5,i
CC(C)C[C@H]1CN(CCCC[C@@H]2CNC(=O)C(=O)N2CC2CCCCC2)C(=O)C(=O)N1CCc1ccc(O)cc1,0.3,i
COCCN1C(=O)CCC1(C)C(=O)Nc1ccc2c(c1)OCCO2 (stereo unspecified),0.6,i
COC(=O)C(c1ccccc1)C(CC(=O)c1ccccc1)c1ccccc1 (stereo unspecified),-1.8,i
CN(Cc1ccccc1)C(=O)[C@@H]1CCCN1C(=O)[C@@H]1CCCN1C(=O)c1cccc(Cl)c1,0.5,i
CC(C)NC(=O)C1(C)CSCC(=O)N1CCOc1ccccc1 (stereo unspecified),1.9,i
CC(=O)NC(c1cccs1)c1cc(Br)c2cccnc2c1O (stereo unspecified),-1.1,i
COC(=O)[C@H](NC(=O)c1cc(-c2ccccc2)sc1N)C(C)C,1.3,i
CC(=O)Nc1cccc(-c2ccnc3c2CC(C)(C(=O)Nc2ccc(Cl)c(C(F)(F)F)c2)O3)c1 (stereo unspecified),-1.6,i
COC(=O)C[C@@H]1CC[C@@H](NS(=O)(=O)c2ccc(OC)cc2)[C@@H](CO)O1,-1.6,i
COc1cc(CN2C[C@@H](CO)O[C@@H](n3cnc4c(NCc5ccco5)ncnc43)C2)cc(OC)c1OC,-6.9,i
c1ccc2c(c1)C1=NCCN1c1ccccc1-2,-11,i
O=C(COC(=O)c1cc(S(=O)(=O)N2CCCCC2)ccc1N1CCOCC1)c1ccccc1Cl,0.6,i
O=C(NC1CCCC1)c1nc(-c2ccco2)oc1-c1ccccc1,6.4,i
COC(=O)C[C@H]1CC[C@@H](NC(=O)C2CC2)[C@@H](CO)O1,4.7,i
C[C@@H]1CN([C@H](C)CO)C(=O)c2c(c3ccccc3n2C)-c2ccccc2CO[C@@H]1CN(C)S(=O)(=O)c1cccs1,-1.1,i
Cc1ccc(S(=O)(=O)N2C[C@]3(O)C[C@@H]4C(=O)N(c5ccccc5)C(=O)[C@@H]4C[C@]3(OC(=O)NC3CC3)C2)cc1,0.1,i
COc1cc(NC(=O)c2ccc(-c3c(C)noc3C)c3ccoc23)cc(OC)c1OC,-6.4,i
CCCCCCN1C[C@H](n2cc(COC(=O)c3ccccc3)nn2)[C@@H](O)C[C@@H]1c1ccc(Cl)cc1,-1.6,i
CSc1ncccc1C(=O)N1CCCC(Nc2ccc(F)c(F)c2)C1 (stereo unspecified),1.9,i
CCc1ccc(C2CC3C(CN2S(=O)(=O)c2ccc(C)cc2)C(=O)CC(c2ccc(CC)cc2)N3S(=O)(=O)c2ccc(C)cc2)cc1 (stereo unspecified),5.2,i
O=C1NCCN1CCNc1nc(NCC2CC2)nc2cc(-c3ccccc3)sc12,2.5,i
CC(=O)c1ccc2cc3c(cc2c1)OCO3,3.1,i
O=C(NCc1ccccc1Cl)C1CCN(C(=O)c2ccc(F)cc2)CC1,-4.7,i
CC(=O)N1N=C(c2ccc(Br)cc2)CC1c1ccc(Br)cc1 (stereo unspecified),1.9,i
COc1ccc(N2C(=O)c3ccccc3NC(=O)C2C(=O)NCC(C)C)cc1 (stereo unspecified),1.0,i
CO[C@@H]1CN(C)C(=O)c2ccc(NC(=O)C3CCCC3)cc2OC[C@@H](C)N(Cc2ccc(F)cc2)C[C@H]1C,5.4,i
CC(C)C1Cc2[nH]c(=S)[nH]c(=O)c2C(c2ccc(Cl)cc2)O1 (stereo unspecified),-0.9,i
FC(F)(F)C1=NNC(c2ccc3ccccc3c2)=NN1,0.0,i
CNC(=O)C[C@H]1C(=O)N(CCc2ccccc2)C[C@@H]1Cc1ccccc1,-2.1,i
CC(C)C[C@H](NC(=O)CC[C@H]1O[C@@H](n2ccc(=O)[nH]c2=O)[C@H](O)[C@@H]1O)C(=O)O,5.7,i
COc1ccc(NC(=O)C2(C)Cc3c(-c4ccccc4)ccnc3O2)cc1OC (stereo unspecified),2.6,i
Cn1c(=O)c2c(-c3ccccc3)n(-c3ccc(N)cc3)cc2n(C)c1=O,-12,i
CC(C)C[C@H]1CNC(=O)C(=O)N1C[C@H]1CCCN1C[C@H](CC(C)C)N1C[C@H](CC(C)C)N(CCc2ccccc2)C(=O)C1=O,-0.8,i
Cc1ccc(S(=O)(=O)N2CCOCC2)cc1NC(=O)CSc1nnnn1C1CC1,1.5,i
O=C(NCc1ccc(C(F)(F)F)cc1)c1cccc2c(-c3ccc(F)c(F)c3)coc12,-1.3,i
Cc1nc(C(F)(F)F)ccc1C(=O)N1CCCC1(C)C(=O)NCC(C)C (stereo unspecified),2.2,i
O=C(COC(=O)/C=C/c1cccc(Br)c1)Nc1ccc(Cl)cn1,0.0,i
# Next section:
SMILES,HNF4A DNA FP,FGF22 binding
CCCCC[C@H]1CCCCC[C@@H](O)C[C@@H](O)[C@@H](O)/C=C/C(=O)O1,0.8,i
CC(=O)N1Cc2cc(C(=O)NCC(F)(F)F)nc(-c3cccc(-c4cccnc4)c3)c2[C@@H]1CCO,2.3,i
COC(=O)[C@@]1(Cc2ccc(F)cc2)[C@H]2c3cc(C(=O)N(C)C)n(CCN4CCOCC4)c3C[C@H]2CN1C(=O)c1ccccc1,8.7,i
CCCS(=O)(=O)NC(=O)C1(C)CCCN(C(=O)c2cccc3ccccc23)C1 (stereo unspecified),-0.6,i
Cc1ccc(S(=O)(=O)N2CC3(O)CN(C(=O)OC(C)C)N(C(=O)OC(C)C)CC3(OC(=O)NCC3CCCCC3)C2)cc1 (stereo unspecified),1.2,i
Cc1ccc(NC(=O)C2c3ccccc3-c3ccccc32)cc1,4.5,i
Cc1ccccc1Cn1c(C)c(C(=O)NCC(C)C)sc1=O,4.0,i
C[C@@H]1CN([C@H](C)CO)C(=O)CCCn2nncc2CO[C@@H]1CN(C)S(C)(=O)=O,4.5,i
